miR-21 FLuc: miR-21 reporter, rising signal | HeLa miR-21 FLuc reporter, luciferase, 48 h | Potency, µM (titrated, usually from 38.3 µM), inactives show at the top dose reporter change, positive = more light | 340,000 tested, under 10 active; active = well fitted rising curve with a large enough effect; inconclusive = small, poorly fitted or top-dose-only effect; inactive = no such curve, though single readings can be large or run the other way;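 note: % of control where 0% means no effect; miR-21 action dims this reporter so a rising signal means less miR-21 action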
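HeLa cells endogenously expressing miR-21, stably carrying CMV-driven firefly luciferase with a downstream miR-21 binding site, 2000 cells/well. Titrations up to approximately 40 uM, 48 hours; luciferase luminescence read.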
GLA inh pH 4.5: alpha-galactosidase A (human) inhibition, pH 4.5. P06280. purified enzyme, 4-MU-alpha-Gal fluorescence, pH 4.5. activity change, negative = inhibition, % at 105 µM. 230,000 tested, under 10 active. AID 1467; inconclusive = small, poorly fitted or top-dose-only inhibition, or a rising curve; inactive = flat fitted curve, though single readings scatter; no compound was filed as active;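 note: 0% = full activity with enzyme and -100% = basal without enzyme; dose as in the result columns while the protocol names 77 µM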
Target sequence (P06280 whole entry, looked up): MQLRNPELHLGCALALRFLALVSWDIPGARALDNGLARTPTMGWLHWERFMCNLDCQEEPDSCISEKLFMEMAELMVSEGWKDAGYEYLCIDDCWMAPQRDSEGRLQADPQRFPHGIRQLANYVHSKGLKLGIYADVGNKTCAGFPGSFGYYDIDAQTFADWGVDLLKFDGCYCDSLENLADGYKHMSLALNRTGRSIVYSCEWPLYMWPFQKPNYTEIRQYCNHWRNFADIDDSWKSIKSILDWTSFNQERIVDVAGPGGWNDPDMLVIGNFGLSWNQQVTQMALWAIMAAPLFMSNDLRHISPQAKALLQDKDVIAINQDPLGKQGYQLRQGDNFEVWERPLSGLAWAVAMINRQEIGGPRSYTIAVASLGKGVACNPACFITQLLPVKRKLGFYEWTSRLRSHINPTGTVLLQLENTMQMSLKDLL
Rango complex inh: inhibitors of Rango-importin beta complex formation; Rango CFP/YFP FRET sensor + importin beta, 45 min; Potency, µM (titrated, usually from 92.2 µM), inactives show at the top dose inhibition of complex formation; 340,000 compounds, 0.031% hits; AID 540263; active = rising FRET ratio curve, often small or poorly fitted; inconclusive = mostly compound fluorescence or quenching in the first reads; inactive = flat curves in all reads;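 note: potency is the fitted concentration of half-maximal effect; 0% = DMSO wells and 100% = buffer wells lacking importin beta; nearly all actives have a fitted effect of over 15% in size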
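Inhibition scored from the CFP 486 nm/YFP 530 nm FRET ratio 45 min after adding 0.125 microM importin beta to 50 nM Rango biosensor preincubated 5 min with compound (room temperature, PBS with DTT, Tween-20, BSA). No-importin wells as positive control.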
Rango dissoc inh: inhibitors of RanGTP-induced Rango-importin beta complex dissociation; O95149+P62826; Biochemical FRET Rango-importin beta, RanGTP-induced dissociation; Potency, µM (top dose mostly 46.1 µM), without a hit: at the top dose activity change, negative = inhibition; 340,000 compounds, 0.071% hits; active means falling FRET ratio curve, often poorly fitted, with flat reads before Ran was added; inconclusive means other falling curves, or compound fluorescence or quenching; inactive means flat or rising ratio curve;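 note: potency is the fitted concentration of half-maximal effect; % of control where 0% means no effect; nearly all actives have a fitted effect of over 45% in size; -100% = wells without RanGTP and RCC1; the record marks most hits as doubtful in a second field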
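Recombinant Rango FRET biosensor (EYFP–snurportin 1 IBB–cerulean CFP10) at 0.1 uM premixed with 0.25 uM importin beta in PBS, 1 mM DTT, 0.02% Tween-20, 0.1% BSA. Compound added 5 min; RanGTP-RCC1 (0.6 uM Ran, 2 mM GTP, 0.2 uM RCC1) then triggers release, read at 45 min.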
* hit, by the source's call; ? = inconclusive; / = not tested or not shown; & = joins results of further samples.

Start of the data: the first 2 compounds as a preview:
mol,GLA inh pH 4.5,miR-21 FLuc,Rango complex inh,Rango dissoc inh
COc1ccc(CN(C)C(=O)Cn2cnc3c(SC)nc(N)nc32)cc1OC,/,/,5.9%,2%
COCCn1c(SCC(=O)c2[nH]c(C)c(C(C)=O)c2C)nc2ccccc21,-6,-3%,0.0%,8%

Results, repeating the preview:
mol,GLA inh pH 4.5,miR-21 FLuc,Rango complex inh,Rango dissoc inh
COc1ccc(CN(C)C(=O)Cn2cnc3c(SC)nc(N)nc32)cc1OC,/,/,5.9%,2%
COCCn1c(SCC(=O)c2[nH]c(C)c(C(C)=O)c2C)nc2ccccc21,-6,-3%,0.0%,8%
Cn1c(-c2ccc(Cl)nc2)nc2ccccc21,/,-38%,-0.9%,?
COCCNC(=O)c1onc(CSc2cccc(OC)c2)c1C(=O)NCCOC,/,/,0.2%,4%
Cc1cc(C)nc(N2CCCC(C(=O)Nc3ccc4c(c3)OCO4)C2)n1 (stereo not given),-2,-10%,-1.5%,6%
O=C(Cn1nc(-c2ccccc2)c2ccccc2c1=O)Nc1ccccn1,8,-19%,0.9%,2%
Cc1cc(C(=O)OCC(=O)N2CCN(C(=O)c3ccco3)CC2)c(C)n1-c1ccc(F)cc1,-8,-4%,-0.6%,1%
Cc1cccc2nc(CSC(=N)N)c(Br)n12,5,20%,-1.5%,23%
CCNCCNC(=O)c1c(O)c2cccc3c2n(c1=O)CCC3,-2,-7%,-0.8%,1%
CC(C)CCn1c(N2CCC(C(N)=O)CC2)nc2c1c(=O)[nH]c(=O)n2C,-1,-1%,0.2%,9%
CCN(C(=O)COC(=O)CSc1ccc(C)cc1C)c1c(N)n(Cc2ccccc2)c(=O)[nH]c1=O,/,/,-0.7%,6%
Cc1ccc(CNS(=O)(=O)c2c(C(=O)N3CCCCC3)c(C)n(C)c2C)cc1,/,2%,-3.1%,-14%
COc1ccc(OCC(=O)Nc2ccccc2OC(F)F)cc1,-4,-19%,-0.1%,13%
CCCS(=O)(=O)N1CCCC(C(=O)NCCc2ccccc2)C1 (stereo not given),/,-15%,-3.9%,-13%
CCCOC(=O)c1ccc(-n2nnnc2SCC(=O)N2CCCCC2)cc1,6,-4%,-5.7%,56%
CC1(C)CC(=O)C=C(NCc2cccs2)C1,0,0%,0.0%,-1%
O=C(O)CCc1ccc(-c2ccc(F)cc2)n1Cc1ccco1,1,-4%,3.5%,-19%
CC1=C(C(=O)OC2CCCC2)C(c2coc3ccc(C)cc3c2=O)C2=C(CCCC2=O)N1 (stereo not given),-11,1%,?,?
COc1ccc(NC(=O)c2ccc(CN3CCc4ccccc4C3)cc2)c(OC)c1,/,10%,1.0%,17%
CCOC(=O)N1CCC(NC(=O)C2CCN(c3ccc(N4CCOCC4)nn3)CC2)CC1,6,-1%,-3.5%,13%
CC(C)(C)C1CCC(C(=O)Nc2cccnc2)CC1 (stereo not given),-2,-1%,0.5%,-10%
CCCc1cc(=O)[nH]c(SCC(=O)Nc2ccc(C(=O)Nc3ccccc3OC)cc2)n1,/,/,0.1%,10%
CCCCOC(=O)c1ccc(Nc2ccc([N+](=O)[O-])cn2)cc1,9,-12%,-10%,-3%
COc1ccc(C(=O)NC(=S)Nc2ccc(Cl)cn2)cc1OC,-1,-6%,-4.8%,60%
Cc1cc(=O)oc2c3c(cc(OCC(=O)NCc4ccco4)c12)OC(C)(C)CC3,/,-9%,1.0%,3%
CCN(CC)S(=O)(=O)c1c(Br)cc(C)cc1Br,?,-11%,4.1%,1%
O=C(Nc1nc2ccccc2s1)C1CC(=O)N(c2ccc(Br)cc2)C1 (stereo not given),-2,0%,-5.7%,-10%
Clc1ccc(-c2nn3cnnc3s2)c(Cl)c1,-4,-31%,-0.3%,-6%
O=C(COC(=O)c1ccc([N+](=O)[O-])s1)NCc1ccc(F)cc1,0,0%,-3.5%,10%
O=C(NNC(=S)NCc1ccccc1)c1cccc([N+](=O)[O-])c1,7,0%,3.8%,1%
COc1ccc(OC)c(NC(=O)C2CCCNC2=O)c1 (stereo not given),-16,3%,0.9%,0%
CC(CCc1ccccc1)NC(=O)COC(=O)c1ccc(NC(N)=O)cc1 (stereo not given),/,-4%,1.2%,2%
Cc1cc(C=NCCCO)c(C)n1-c1cc(Cl)ccc1Cl,2,-5%,1.1%,8%
Cc1cc(-c2ccccc2)nc(SCc2ccc(C(=O)O)o2)n1,2,-16%,-2.5%,-3%
Nc1nc(-c2ccccc2)ns1,/,/,-3.7%,0%
COCC(C)n1c(COc2ccccc2F)nnc1SCC(=O)Nc1oc(C)c2c(C)n[nH]c(=O)c12 (stereo not given),/,/,-2.9%,-8%
CC1CCCCC1NC(=O)c1ccc(-n2cncn2)c([N+](=O)[O-])c1 (stereo not given),/,/,-4.4%,12%
CCN(CC)CCCN(Cc1cc2cc3c(cc2[nH]c1=O)OCO3)C(=S)NCc1ccco1,20,-3%,-3.6%,-15%
CCN(c1ccccc1)S(=O)(=O)c1ccc(OC)c(NC(=O)C2CC(=O)N(Cc3ccccc3)C2)c1 (stereo not given),-13,6%,0.4%,-1%
Cc1cc(Cl)ccc1NC(=S)N1CCOCC1,-9,0%,0.1%,-3%
CC(=O)C(Sc1ccc2nnc(-c3ccc(F)cc3)n2n1)C(C)=O,8,2%,?,-10%
O=C(CN1CCN(C(=O)C2CCCO2)CC1)Nc1c(Cl)cccc1Cl (stereo not given),/,1%,-1.1%,2%
CNC(=O)CCc1nc(-c2ccc(C(C)(C)C)cc2)no1,4,-5%,1.5%,19%
CCCN1C(=O)c2ccc(C(=O)NC3CCCCC3)cc2C1=O,6,-4%,-3.1%,1%
Cc1noc(C)c1COc1cccc(C(=O)OC(C)C(=O)Nc2ccc3c(c2)OCO3)c1 (stereo not given),2,26%,-1.7%,0%
COC(=O)Cn1c(N)[n+](Cc2ccccc2)c2ccccc21,/,/,4.0%,10%
O=C(Oc1cc(Cl)cc(Cl)c1)c1cnc2n(c1=O)CCS2,0,-4%,-1.6%,11%
CC(C)(C)c1ccc(C2(C)NC(=O)N(CC(=O)c3ccc[nH]3)C2=O)cc1 (stereo not given),6,-11%,-1.8%,-7%
C=CCn1c(SCC(=O)Nc2cc(Cl)ccc2C(=O)O)nc2sc(C)c(C)c2c1=O,/,/,-2.6%,14%
COC(=O)Nc1nnc(COc2ccccc2)s1,-1,-13%,-1.4%,8%
Cc1ccc(-c2nc(C#N)c(NCCN3CCCCC3)o2)cc1,-20,-26%,-0.4%,0%
CCN(CC)CCN1C(=O)c2ccccc2NC1c1ccc(N(C)C)cc1 (stereo not given),3,-2%,-1.1%,-19%
O=C(O)c1cc2ccc3ccccc3c2oc1=O,7,-25%,?,-29%
Cc1cc(C)n(-c2ccc(F)cc2)c(=O)c1C(=O)O,-18,0%,1.2%,18%
Oc1ccc(Br)cc1/C=N/n1cnc2ccccc21,-2,-42%,?,?
O=C(c1ccc2c(=O)n(-c3ccccc3)c(=S)[nH]c2c1)N1CCN(c2ccccc2)CC1,/,/,-0.4%,0%
CCOc1cc(/C=N\NC(=O)Cc2ccccc2)ccc1OCC(=O)Nc1ccc(C)c(C)c1,6,-1%,-1.9%,12%
c1ccc2c(Nc3nnc(-c4ccncc4)s3)cccc2c1,-4,-32%,-1.1%,-12%
Cc1nc(-c2ccc(C#N)cc2)cs1,-7,-11%,0.0%,11%
Cn1c(=O)[nH]c(=O)c2c1nc(Br)n2CCCSc1nc2ccccc2o1,2,18%,-0.5%,-7%

Further results
mol,GLA inh pH 4.5,miR-21 FLuc,Rango complex inh,Rango dissoc inh
CCCCOc1ccc(/C=C/C(=O)OCC(=O)c2c(N)n(C)c(=O)n(C)c2=O)cc1OCC,13,-4%,1.0%,16%
O=c1ncn(-c2ccc(F)cc2)c2ncccc12,4,-10%,-3.3%,1%
COc1ccc(S(=O)(=O)NC2CC(C)(C)NC(C)(C)C2)cc1C(C)C,-1,1%,0.0%,-6%
COc1ccc(S(=O)(=O)Nc2ccccc2OC)cc1N=Nc1c(O)[nH]c(=S)[nH]c1=O,/,/,0.4%,-7%
C=CCn1c(N)cc(=O)nc1SC(CC)C(=O)Nc1ccc(C(C)=O)cc1 (stereo not given),/,5%,-4.4%,0%
Cc1ccc([N+](=O)[O-])cc1-c1ccc(/C=N/NC(=O)c2cc3c(ccc4ccccc43)o2)o1,-8,2%,2.2%,-2%
CN1C(=O)c2ccc(NC(=O)c3c(C(=O)O)cccc3[N+](=O)[O-])cc2C1=O,/,2%,3.6%,-6%
CCOC(=O)N1CCC(NC(=O)Cn2ncc3c2-c2cc(C)ccc2OC3)CC1,-11,0%,-0.7%,-4%
O=C1NCCC12C(=O)Nc1ccccc12 (stereo not given),/,/,2.2%,2%
CCCCCCCC/C=C\CCCCCCCC(=O)NCCc1ccc(O)c(O)c1,-9&0&3,/,-1.6%,1%
COc1ccc(Nc2nc(Nc3ccc(OC)cc3)nc(SC3=NCCS3)n2)cc1,-2,28%,-0.3%,-1%
COc1ccc2oc(C(=O)OCC(=O)NC(=O)NC(C)C)c(C)c2c1,-6,-3%,-2.7%,9%
CC(=O)N1c2ccccc2N2C(c3c(C)c(C)cc(C)c3C)=NON12,2,-2%,0.6%,3%
O=C(O)Cn1ncc2c1-c1ccoc1CC2,2,-1%,0.6%,-9%
COc1ccc(C(=O)NCc2cccc(Cl)c2)cc1S(=O)(=O)N1CCOCC1,/,/,-1.1%,-6%
CC1=CC2=NC(=O)/C(=C\c3cc(C)n(-c4ccccc4)c3C)C(=N)N2O1,-19,-12%,-3.9%,-7%
COC(=O)Cn1c(=NC(=O)c2cc(OC)c(OC)c(OC)c2)sc2cc(OC)ccc21,7,-2%,-4.6%,-6%
CCOC(=O)Cn1c(Br)nc2c1c(=O)[nH]c(=O)n2C,4,0%,-0.1%,-7%
CCOC(=O)C1CCN(C(=O)Cn2cnc3sc(C)c(S(=O)(=O)N4CCOCC4)c3c2=O)CC1,/,0%,-0.2%,17%
COc1ccc(CNC(=O)CN2CCN(S(=O)(=O)c3c(C)c(C)cc(C)c3C)CC2)cc1OC,/,/,-0.2%,-5%
O=C(Cc1n[nH]c(=O)c2ccccc12)OCc1c(Cl)cccc1Cl,6,-6%,0.7%,-8%
CC(C)(C)c1ccc(CSc2ccc(S(=O)(=O)N3CCOCC3)cn2)cc1,/,/,3.7%,-4%
Cc1ccc(-c2cc(C(=O)Nc3cccnc3)c3ccccc3n2)s1,/,1%,-2.3%,-12%
C/C(=N\NC(=O)c1ccccc1N)c1ccc(NC(=O)Cc2ccccc2)cc1,/,-46%,3.0%,-6%
CCOc1ccccc1Nc1nc(N)nc(CSc2nccc(C)n2)n1,-10,-13%,-1.0%,4%
Cc1ccc(S(=O)(=O)N2CCC[C@H]2C(=O)OCC(=O)c2ccc3c(c2)NC(=O)CO3)cc1,4,1%,0.8%,6%
c1ccc2c(c1)-c1cccc3cncc-2c13,/,/,-3.7%,0%
C=CCn1c(SCC(=O)c2c(N)n(C3CC3)c(=O)[nH]c2=O)nnc1-c1ccccc1OC,/,/,3.6%,7%
COc1cc2c(cc1OC)[C@H](C)N(C(=S)Nc1ccc(F)cc1)CC2,3,-6%,-0.2%,-13%
COc1ccc(C)cc1S(=O)(=O)Nc1ccc2c(c1)N(C(C)=O)CCC2,/,/,-1.6%,7%
CO/N=C/C(=N\Nc1ccccc1)C(=O)c1ccccc1,3,-20%,-0.7%,-1%
Cc1ccc2c(c1)nnn2C1CCN(S(=O)(=O)c2ccc3ccccc3c2)CC1,-8,-1%,1.8%,-14%
CC1CCc2c(sc(NC(=O)c3ccc(Cn4cc([N+](=O)[O-])cn4)o3)c2C#N)C1 (stereo not given),-2,-19%,-2.1%,-3%

High-throughput results as filed in PubChem.

These rows are one share of the data, so the mix of outcomes need not match the whole.
